Assay outcomes (PubChem BioAssay)
Bm FixLJ act – activators of Burkholderia fixLJ two-component system. B. multivorans fixK-promoter GFP reporter, 18 h; stronger effect = higher value. z-score (concentration not given with the values). actives 0.3% (n = 29,000). AID 1918990;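 active = replicate mean overnight rise in green fluorescent reporter signal, 3 or more SD over negative controls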;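 also: score is relative to vehicle wells of the plate; 300 nL library stock went into each well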
Starred values were filed as active, the others as inactive.

SMILES | Bm FixLJ act
CC(=O)c1c(-c2ccc(C(=O)N(C)Cc3nc(C)cs3)cc2)cnn1C | -0.31
COC1CN(C(C)C)CC1NC(=O)Cc1nc(C)sc1C (stereo not drawn) | -2.19
Cc1cc(C(=O)NC2CC=CCC2C(N)=O)c(C)n1-c1ccccc1 (stereo not drawn) | -1.34
CC(C)(C)c1ccc(S(=O)(=O)c2cnc(SCC(=O)Nc3ccc4c(c3)OCCO4)[nH]c2=O)cc1 | 0.4
CCc1ccc(C2c3c(-c4ccccc4O)n[nH]c3C(=O)N2Cc2cccnc2)cc1 (stereo not drawn) | -2.5
COc1ccc(NC(=O)C(CC(C)C)NC(=O)C2CCCCC2)c(OC)c1 (stereo not drawn) | -0.56
CCN(CC)CCn1c(=N)n(CCOc2ccccc2Cl)c2ccccc21 | 0.35
COC(=O)c1ccccc1NC(=O)c1ccc2c(=O)n3c(nc2c1)CCCCC3 | 0.53
Cc1cccc(C2CC(=O)Nc3cc4c(cc32)OCO4)c1 (stereo not drawn) | -0.96
CCC(NC(C)C)C(O)c1ccc(O)c(O)c1 (stereo not drawn) | 8.16*
CNC(=O)c1nc(CN2CCN(Cc3ccccc3F)C(=O)C2)no1 | 0.71
COc1ccc(S(=O)(=O)N2CCC(c3nnc(-c4ccccc4C)o3)CC2)c(OC)c1 | -1.55
Cn1c(Cn2ccnc2)nnc1C1CCCN(c2ncccc2C(N)=O)C1 (stereo not drawn) | 0.74
CN(C)Cc1nnc(C2CCCN(C(=O)c3cc(C4CC4)on3)C2)n1C (stereo not drawn) | -1.79
CC(=O)c1ccc(OCC(=O)N2CCC(Cc3cccc(CO)c3)C2)cc1 (stereo not drawn) | -1.56
CCCCN1C(=O)c2[nH]nc(-c3ccccc3O)c2C1c1cc(Br)c(O)c(OC)c1 (stereo not drawn) | -0.87
COc1ccc2c(c1)c(CC(=O)Nc1cc(C)cc(C)c1)c(C)n2C(=O)c1ccc(Cl)cc1 | -2.72
COc1cccc(C2=NN(C(C)=O)C(c3cn(-c4ccccc4)nc3-c3cccs3)C2)c1 (stereo not drawn) | 0.81
Cc1[nH]ncc1CN(C)Cc1ccccc1OCCN1CCOCC1 | 2.87
O=C(c1ccn2nnnc2c1)N1CCC(c2ccccc2F)C1 (stereo not drawn) | 0.31
COc1ccc(NC(=O)c2ccco2)cc1NC(=O)c1cc(OC)c(OC)c(OC)c1 | 0.74
CN(CC(=O)NC1COCC1Cc1ccnc2ccccc12)C(N)=O (stereo not drawn) | -0.4
CCCN(CCC)CCNC(=O)C1CCN(c2nc3ccc(CC)cc3s2)CC1 | -1.36
COc1ccc(OC)c(CCNC(=O)c2cc3c(=O)oc4ccc(C)cc4c3s2)c1 | -0.64
COc1ccc2oc(-c3ccc(C)c(NC(=O)c4ccc(-c5ccccc5[N+](=O)[O-])o4)c3)nc2c1 | -0.4
Additional records follow.
SMILES | Bm FixLJ act
COc1ccc2c(c1)cc(C(=O)NCc1cccc(-c3nn[nH]n3)c1)n2C | 0.53
Cc1ccccc1OCC(=O)Nc1c(C(=O)Nc2ccccc2F)oc2ccccc12 | -1.24
CC(C)CN1CC(C(=O)NCCc2noc(C(F)(F)F)n2)CCC1=O (stereo not drawn) | -0.95
CCc1ccc(OC(C)c2nc(-c3ccc(-n4cccc4)cc3)no2)cc1 (stereo not drawn) | -1.56
COc1ccc(S(=O)(=O)N2CCC(Oc3ccc(-n4cnnn4)cc3)CC2)cc1OC | -0.82
COC(=O)c1ccccc1NC(=O)CSc1nc(-c2ccccc2)cc(C(F)(F)F)n1 | -1.12
CCOc1ccc(OCC)c(NC(=O)c2csc3c2CCCC3)c1 | -0.32
NCC1(CC(=O)O)CCCCC1 | -0.77
Cc1ccc2c(c1)-c1nc(-c3ccc4c(c3)NC(=O)CO4)cc(-c3ccccc3)c1CO2 | 0.38
COc1ccc2c(c1)CCCC2NC(=O)c1scc2c1OCCO2 (stereo not drawn) | 1.49
Cc1ccc2oc(=O)c3cnn(CC(=O)N4CCN(c5cc(Cl)ccc5C)CC4)c3c2c1 | -0.93
COc1cccc(NC(=O)CCSc2nc(-c3ccco3)cc(C(F)(F)F)n2)c1 | -0.37
CCOc1ccccc1NC(=O)C1CCN(S(=O)(=O)c2cccs2)CC1 | -2.76
Cc1ccc(S(=O)(=O)c2nc(-c3ccc(F)cc3)oc2SCC(=O)c2ccccc2)cc1 | -1.63
CCc1nn(CC(=O)NCCc2ccc(Cl)cc2)c(=O)c2cc3ccccc3n12 | -1.72
O=C(Nc1cc(-c2nc3ccccc3o2)ccc1Cl)c1sc2c([N+](=O)[O-])cccc2c1Cl | -0.18
O=C(Nc1cccc2cccnc12)c1cccc2c(Br)cccc12 | -2.65
COc1ccccc1N1CCN(S(=O)(=O)c2ccc3c(c2)oc(=O)n3C)CC1 | -1.06
Cc1ccccc1Cn1c2ccccc2c2cnn(CC(=O)NC3CCC(C)CC3)c(=O)c21 (stereo not drawn) | -1.31
Cn1c(C(=O)NCc2ccccc2Cl)cc2sc(Cl)cc21 | 1.83
Cc1nn(C)c(C)c1CCC(=O)N1CCCn2nc(C(O)CO)cc2C1 (stereo not drawn) | -1.38
Cc1cc(F)ccc1NC(=O)c1sc2nc(-c3cccs3)ccc2c1N | -1.07
Cc1cc(C(=O)N(C)Cc2nc3ccccc3c(=O)[nH]2)c2c(C)noc2n1 | 2.33
CCc1[nH]nc(C(=O)N2CCC3(CC2)c2nc[nH]c2CCN3C(=O)COC)c1C | 0.04
COc1ccc(-c2cc3nc(C)c(CCC(=O)N4CCN(c5ccccc5F)CC4)c(C)n3n2)c(OC)c1 | -0.58
Further results.
SMILES | Bm FixLJ act
CCCn1cnc2cc(NCc3ccc(OC)cc3OC)ccc21 | -1.65
Fc1ccc(CNc2nc3c(-c4ccc(F)cc4)nnn3c3ccccc23)cc1 | -1.05
Oc1ccc(NCc2ccc(OCc3ccccc3Cl)cc2)cc1 | -0.02
CO[C@@]12[C@@H]3NC3CN1C1=C(C(=O)C(N)=C(C)C1=O)[C@@H]2COC(N)=O (stereo partly drawn) | -2.26
CCOc1ccc(CCNC(=O)c2nn(-c3ccc(OC)c(Cl)c3)c(=O)c3c2c2ccccc2n3C)cc1OCC | 1.11
CCOc1ccc(-n2c(=O)c3c4c(sc3n(CC(=O)NC(C)CC)c2=O)CCCC4)cc1 (stereo not drawn) | -0.81
CCc1ccc2occ(CC(=O)Nc3c(C(=O)c4ccc(C)cc4)oc4ccccc34)c2c1 | -2.06
O=C(c1cnnn1-c1ccccc1)N(Cc1cccnc1)Cc1cccnc1 | -2.73
Cc1ccc(/C=C(\C#N)C(=O)Nc2cccc(Cl)c2)o1 | -1.37
COc1cc(NC(=O)Cn2nc(C(F)(F)F)c3c2CCCC3)cc(OC)c1OC | -1.24
COc1ccccc1N=c1scc(-c2ccc(S(=O)(=O)N3CCCC3)cc2)n1C | -0.91
Cc1ccc2nc(SCc3nc(-c4ccccc4C)no3)[nH]c2c1 | -1.88
O=C(Nc1ccc(F)c(Cl)c1)c1ccc2c(Cl)c3c(nc2c1)CCCC3 | 0.48
COc1ccc(-c2c(C)nn3c(-c4ccccc4)cc(C)nc23)cc1OC | -1.43
CCC(C(=O)N1CCN(c2ccccc2)CC1)n1c(C)c2cnn(-c3ccccc3)c(=O)c2c1C (stereo not drawn) | -1.9
Cc1nc(-c2ccc(NC(=O)c3c(-c4ccccc4)noc3C)cc2)n[nH]1 | -0.54
COc1cc(S(=O)(=O)N2CCC[C@]3(CCCC3OC)C2)c(OC)cc1C (stereo partly drawn) | -1.43
OCc1nc2ccccc2n1Cc1c(F)cccc1Cl | -1.1
Cc1cccc(CCn2c(=O)c3ccccc3n(Cc3ccccc3C)c2=O)c1 | 0.66
COc1cccc(NC(=O)Cn2cc(C(=O)c3ccc(C)cc3)c(=O)c3cc(OC)ccc32)c1 | -1.71
COc1ccc(NC(=O)CN(Cc2ccccc2)S(=O)(=O)c2ccc(C)cc2)cc1Cl | 1.93
CCCCN(C)CCCNC(=O)c1ccc2nc(N3CCCCC3)sc2c1 | -0.58
CC(c1ccncn1)N(C)C(=O)C1CCN(C(=O)c2ccccn2)CC1 (stereo not drawn) | -0.77
Cc1ccc(CN(Cc2ccco2)C(=O)COc2ccc(Cl)cc2)o1 | -0.31
COc1ccc(NC(=O)c2sc3nc4c(cc3c2N)CCCCCC4)c(OC)c1 | -2.54
The list goes on:
SMILES | Bm FixLJ act
CCOc1ccc(Nc2c(S(=O)(=O)c3ccccc3)cnc3ccccc23)cc1 | -1.66
COc1ccc(-c2nc(CS(=O)CC(=O)NCCc3ccc(Cl)cc3)c(C)o2)cc1OC (stereo not drawn) | -1.18
COc1ccc(NC(=O)CSc2c3c(nc4ccccc24)CCC3)c(OC)c1 | -0.36
CCCCN(C)C(=O)CSc1c2c(nc3ccc(Cl)cc13)CCCC2 | -1.75
Cc1cc(C)cc(Oc2c(C(F)(F)F)oc3cc(OCC(=O)NC4CCCCC4)ccc3c2=O)c1 | -1.86
COc1ccc(NC(=O)CCSc2nc(-c3ccco3)cc(C(F)(F)F)n2)cc1 | -1.11
COc1ccc(CSc2nc3ccncc3n2Cc2nc(-c3ccc(OC)c(OC)c3)oc2C)cc1 | -2.14
CCN(CC)Cc1cnc2c(C(=O)NCC3CCC(=O)N3C)cnn2c1 (stereo not drawn) | -0.63
CCc1nn(CC(=O)NC(C)CCc2ccccc2)c(=O)c2cc3c(OC)cccc3n12 (stereo not drawn) | -2.52
COc1cc(OC)c(NC(=O)CCc2c(C)nc3ncnn3c2C)cc1Cl | -0.76
COC(C)c1nnc(NC(=O)COCc2ccccc2)s1 (stereo not drawn) | 0.23
CN(C)S(=O)(=O)c1ccc(C(=O)Nc2c(C(=O)Nc3ccc(F)cc3)oc3ccccc23)cc1 | -0.45
CN(Cc1ncon1)C(=O)c1cc(O)cc(OCC2CC2)c1 | 0.32
CCc1ccccc1S(=O)(=O)Cc1ccc(C(=O)NCCc2ccc(C)cc2)o1 | -0.75
Cc1nc(CC2CCN(C(=O)Nc3cccc4ncccc34)CC2)no1 | -0.76
CCOc1ccc(NC(=O)Cn2cc(C(=O)C3CC3)c3ccccc32)cc1 | -0.09
Cc1ccc(C(=O)COC(=O)CCC(=O)Nc2ccc(Oc3ccccc3)cc2)cc1C | -0.99
COc1cc(C)ccc1OCCCn1c(-c2ccc(Cl)cc2)nc2ccccc2c1=O | -0.76
COc1ccc(S(=O)(=O)Nc2c(C)nc3nc[nH]n3c2=O)cc1 | -0.46
Cc1cccc(Cn2c(C)c(CNC3CCCCCC3)c(C(=O)O)c2C)c1 | -1.03
COCc1cc(CNS(=O)(=O)c2cc(-c3cc(C(F)(F)F)[nH]n3)sc2C)n[nH]1 | 2.4
COc1cc(Nc2nc3ccc(Cl)cc3nc2-n2nc(C)cc2C)cc(OC)c1 | -0.66
C=Cc1ccc(Cn2c(C)c(CNCc3cccc(Br)c3)c(C(=O)O)c2C)cc1 | -0.86
COc1cc(NC(=O)CCNC(=O)Cn2cnc3ccccc3c2=O)cc(OC)c1OC | 0.4
CCc1ccccc1NC(=O)CN(c1cccc(C)c1C)S(C)(=O)=O | -1.9
Next part.
SMILES | Bm FixLJ act
CCOc1ccc(N2CC(c3nc4ccccc4n3CCC3CCCCC3)CC2=O)cc1 (stereo not drawn) | -1.53
CN(CC(=O)Nc1ccc(Cl)cn1)Cc1ccc2nsnc2c1 | 0.22
Cc1ccc(S(=O)(=O)c2nnn3c2nc(N2CCC(C(N)=O)CC2)c2cc(Cl)ccc23)cc1C | -0.97
Cc1nc2c(c(C)nn2-c2ccccc2)c(C)c1CCC(=O)Nc1ccccc1 | -0.93
CCn1c(Cn2ccnc2)nnc1C1CCN(C(=O)c2cncc(F)c2)CC1 | 0.36
C[C@@]1(C(=O)O)CCCN1C(=O)c1cnc(N2CCOCC2)nc1 | -0.24
COC1CN(C(=O)CN2CCN(c3ncccn3)CC2)CC1Cc1cc(C)no1 (stereo not drawn) | -0.7
CCn1cc(CN(C)C(=O)c2ccc(-c3ncnn3C(C)C)cc2)cn1 | 0.8
Cc1nnc(SCC(=O)Nc2ccc(Br)cc2)[nH]c1=O | -1.08
CCCN1CC(NC(=O)c2ccc(-n3cnnc3)cc2)CC1=O (stereo not drawn) | -0.06
Cc1ccc(NC(=O)c2c(C)nc3sc(C(=O)Nc4ccc(F)cc4)c(N)c3c2-c2ccc(Cl)cc2)c(C)c1 | 0.16
CCOCc1ccccc1Nc1ncnc2onc(-c3ccc(Cl)cc3)c12 | 0.79
Cc1cc(C)n2ncc(CN3CCCCC3c3cc(C)on3)c2n1 (stereo not drawn) | -1.46
O=C1CC(c2nc3ccccc3n2CCC2CCCCC2)CN1c1ccccc1Cl (stereo not drawn) | -2.89
COc1ccc(NC(=O)CC2C(=O)N(c3ccccc3)C(=O)N2CCc2sccc2C)cc1 (stereo not drawn) | -2.28

Arranged by length of the SMILES (low to high): 15 of the compounds above.
SMILES | Bm FixLJ act
Cc1nnc(SCC(=O)Nc2ccc(Br)cc2)[nH]c1=O | -1.08
CN(CC(=O)Nc1ccc(Cl)cn1)Cc1ccc2nsnc2c1 | 0.22
Cc1cc(C)n2ncc(CN3CCCCC3c3cc(C)on3)c2n1 (stereo not drawn) | -1.46
CCOCc1ccccc1Nc1ncnc2onc(-c3ccc(Cl)cc3)c12 | 0.79
CCc1ccccc1NC(=O)CN(c1cccc(C)c1C)S(C)(=O)=O | -1.9
C[C@@]1(C(=O)O)CCCN1C(=O)c1cnc(N2CCOCC2)nc1 | -0.24
O=C1CC(c2nc3ccccc3n2CCC2CCCCC2)CN1c1ccccc1Cl (stereo not drawn) | -2.89
CCn1c(Cn2ccnc2)nnc1C1CCN(C(=O)c2cncc(F)c2)CC1 | 0.36
COC1CN(C(=O)CN2CCN(c3ncccn3)CC2)CC1Cc1cc(C)no1 (stereo not drawn) | -0.7
Cc1nc2c(c(C)nn2-c2ccccc2)c(C)c1CCC(=O)Nc1ccccc1 | -0.93
COc1cc(NC(=O)CCNC(=O)Cn2cnc3ccccc3c2=O)cc(OC)c1OC | 0.4
C=Cc1ccc(Cn2c(C)c(CNCc3cccc(Br)c3)c(C(=O)O)c2C)cc1 | -0.86
COc1ccc(NC(=O)CC2C(=O)N(c3ccccc3)C(=O)N2CCc2sccc2C)cc1 (stereo not drawn) | -2.28
Cc1ccc(S(=O)(=O)c2nnn3c2nc(N2CCC(C(N)=O)CC2)c2cc(Cl)ccc23)cc1C | -0.97
Cc1ccc(NC(=O)c2c(C)nc3sc(C(=O)Nc4ccc(F)cc4)c(N)c3c2-c2ccc(Cl)cc2)c(C)c1 | 0.16

Not all compounds are listed; rates above refer to the full screens.
